Bioassay records as filed in PubChem BioAssay.
Rango-impB inh = prevents formation of the Rango-importin beta complex; actives 0.031% (n = 340,000); Q14974; Potency, µM (top dose mostly 92.2 µM), for inactives: at the top dose inhibition of complex formation; Rango CFP/YFP FRET sensor + importin beta, 45 min; active = rising FRET ratio curve, often small or poorly fitted; inconclusive = mostly compound fluorescence or quenching in the first reads; inactive = flat curves in all reads;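 further: potency means the concentration at half of the fitted maximal effect; 0% = DMSO wells and 100% = buffer wells lacking importin beta; nearly all actives have a fitted effect of over 15% in size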
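FRET biosensor (snurportin 1 IBB flanked by EYFP and cerulean), 50 nM, with compound 5 min, then 0.125 microM importin beta in PBS, 1 mM DTT, 0.02% Tween-20, 0.1% BSA. CFP/YFP ratio read after 45 min at room temperature; pre-read flags interference.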
miR-21 reporter = miR-21 reporter, rising signal | 340,000 tested, under 10 active | Potency, µM (series often up to 38.3 µM), without a hit: at the top dose reporter change, positive = more light | HeLa miR-21 FLuc reporter, luciferase, 48 h; active = well fitted rising curve with a large enough effect; inconclusive = small, poorly fitted or top-dose-only effect; inactive = no such curve, though single readings can be large or run the other way;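 further: % of control where 0% means no effect; miR-21 action dims this reporter so a rising signal means less miR-21 action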
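HeLa cells stably expressing CMV-driven firefly luciferase with a downstream miR-21 binding sequence, endogenously expressing miR-21, were treated with titrations (up to about 40uM final) for 48 hours at 37 degree Celsius. Luciferase luminescence was read after lysis.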
Rango dissoc inh = inhibitors of RanGTP-induced Rango-importin beta complex dissociation | Biochemical FRET Rango-importin beta, RanGTP-induced dissociation | Potency, µM (doses to about 46.1 µM), for inactives: at the top dose activity change, negative = inhibition | actives 0.071% (n = 340,000) | AID 540253; active means falling FRET ratio curve, often poorly fitted, with flat reads before Ran was added; inconclusive means other falling curves, or compound fluorescence or quenching; inactive means flat or rising ratio curve;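 further: potency means the concentration at half of the fitted maximal effect; % of control where 0% means no effect; nearly all actives have a fitted effect of over 45% in size; -100% = wells without RanGTP and RCC1; the record marks most hits as doubtful in a second field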
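Compounds sat 5 min at room temperature with 0.1 uM Rango biosensor plus 0.25 uM importin beta, then FRET pre-read. RanGTP-RCC1 (0.6 uM Ran, 2mM GTP, 0.2 uM RCC1) added for 45 min, and the CFP/YFP post-read measured blocked complex dissociation.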
GLA inh pH 4.5 = blocks human alpha-galactosidase A at pH 4.5; activity change, negative = inhibition, % at 105 µM; AID 1467; 230,000 tested, under 10 active; P06280; purified enzyme, 4-MU-alpha-Gal fluorescence, pH 4.5; inconclusive = small, poorly fitted or top-dose-only inhibition, or a rising curve; inactive = flat fitted curve, though single readings scatter; no compound was filed as active;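 further: 0% = full activity with enzyme and -100% = basal without enzyme; dose as in the result columns while the protocol names 77 µM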
Target sequence (P06280 whole entry, looked up): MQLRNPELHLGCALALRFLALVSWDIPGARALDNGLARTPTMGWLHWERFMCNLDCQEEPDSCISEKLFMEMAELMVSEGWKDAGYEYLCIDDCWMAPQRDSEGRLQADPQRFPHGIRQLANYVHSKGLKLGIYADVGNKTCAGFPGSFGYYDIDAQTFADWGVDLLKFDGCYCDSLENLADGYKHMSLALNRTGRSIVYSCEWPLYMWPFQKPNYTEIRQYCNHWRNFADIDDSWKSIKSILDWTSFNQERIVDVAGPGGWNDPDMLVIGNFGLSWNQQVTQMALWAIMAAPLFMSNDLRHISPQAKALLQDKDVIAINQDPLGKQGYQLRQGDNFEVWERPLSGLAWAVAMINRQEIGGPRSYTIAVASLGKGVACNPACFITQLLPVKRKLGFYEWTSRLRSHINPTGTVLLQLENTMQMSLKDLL
Active calls of the source: *; ? = inconclusive; . = no result given; [ ] = dose if it differs, or a comment.

Rango dissoc inh	miR-21 reporter	Rango-impB inh	GLA inh pH 4.5	Compound
-3%	-3%	-2.4%	7	COc1ccccc1CNC(=O)C1CCN(S(=O)(=O)c2cccc3cccnc23)CC1
1%	-3%	0.7%	-9	CS(=O)(=O)N(CC(=O)NCc1ccccc1)C1CCCCC1
-16%	-7%	0.7%	5	Cc1ccc(CN2C(=O)c3ccccc3NC2c2ccccn2)cc1 (centres undefined)
39%	-10%	0.8%	-4	COc1cc(/C=C/C(=O)O)ccc1OCc1ccccc1C#N
-3%	.	0.3%	.	Cc1ccc2nc(-c3ccccc3)cc(C(=O)N3CCN(c4ccccc4O)CC3)c2c1
-5%	13%	-0.1%	0	O=C(CS(=O)c1ccc(C(F)(F)F)cc1[N+](=O)[O-])Oc1ccc(Cl)cc1 (centres undefined)
15%	-41%	3.5%	.	Cc1cccc(NC(=O)c2ccc3c(c2)CCN3S(C)(=O)=O)c1
?	0%	?	.	CCNC(=O)/C(C#N)=C/c1c(N2CCN(c3ccccc3)CC2)nc2c(C)cccn2c1=O
0%	.	3.7%	.	C/C=C/c1ccc(OCC(=O)N(CCOC)c2c(N)n(CCCC)c(=O)[nH]c2=O)c(OC)c1
-15%	5%	-2.8%	0[21.1 µM]	COc1ccc(C(=O)N2CCN(c3cnn(-c4ccccc4)c(=O)c3Cl)CC2)cc1
9%	1%	?	-11	CCOC(=O)C1CCCN(C(=O)COc2ccc(S(=O)(=O)N(CC)c3ccccc3)cc2)C1 (centres undefined)
2%	6%	1.5%	.	COc1ccc(OC)c(S(=O)(=O)N2CCC(NC(=O)c3ccccc3)CC2)c1
-8%	1%	0.4%	.	COc1ccccc1CN1CC(C(=O)NCCc2ccc(Cl)cc2)CC1=O (centres undefined)
9%	-34%	0.6%	.	COc1cccc(OCc2cc(C(=O)N3CCN(C)C(c4ccccc4)C3)no2)c1 (centres undefined)
10%	2%	-1.6%	2	CCc1nc2c(cnn2-c2ccc(F)cc2)c(=O)n1-c1ccc(N2CCC(C)CC2)cc1
9%	-10%	3.3%	.	O=C(CC(=O)Nc1ccc(F)cc1F)Nc1ccc(F)cc1F
-9%	.	0.6%	.	COC(=O)C1=C[C@@H](C(=O)OC)C2C3=C(C(=O)C24CCCCC4)[C@H](C)n2c(=O)n(-c4ccccc4)c(=O)n2[C@@H]3C1 (some centres undefined)
-6%	0%	-0.4%	2	COc1ccc(NC(=O)COc2ccccc2C#N)c(S(=O)(=O)N2CCCCC2)c1
1%	10%	-2.2%	.	CC(Cc1cccnc1)NC(=O)c1cc(COc2ccc(F)cc2F)on1 (centres undefined)
3%	9%	-0.1%	0	O=C(/C=C\c1ccccc1)Oc1cccc2cccnc12
-8%	?	6.7%	2	O=C(Nc1ccccc1)C1=C(c2ccccc2)S(=O)(=O)CCS1(=O)=O
-10%	-1%	-0.4%	-1	N#CCCN(Cc1ccccc1)C(=O)c1cccs1
1%	-1%	?	0	Cc1ccnc(NS(=O)(=O)c2ccc(Oc3ccccc3)cc2)c1
-1%	-2%	0.9%	.	COC(=O)c1ccc(OCC(O)CN2CCN(CC(O)COc3ccc(C(=O)OC)cc3)CC2)cc1 (centres undefined)
-3%	0%	2.8%	.	O=C(COc1ccc(S(=O)(=O)N2CCCC2)cc1)Nc1ccc(F)cc1
-1%	4%	-3.1%	9	Cc1cc(C)n(CC(=O)c2cccc([N+](=O)[O-])c2)n1
1%	.	1.1%	.	Cc1nc(SCC(=O)Nc2ccc3[nH]c(=O)[nH]c3c2)nc(C)c1C
19%	1%	-2.5%	-2	CCCc1oc(C(=O)O)cc1CN
?	?	?	-11	Oc1ccc(Br)cc1-c1nc2cnccn2c1NC1CCCC1
6%	9%	2.5%	0	N#CNC(=Nc1cccc(F)c1)SCc1cccc(F)c1
-7%	-1%	0.4%	0	Cc1nn(C)c2ncc(C(N)=O)c(Oc3cccnc3)c12
-8%	-8%	?	0	Cc1cccc(C)c1Nc1nnc(SCC(=O)Nc2sccc2C#N)s1
-19%	0%	-0.2%	10	O=C(O)/C=C/c1ccc(S(=O)(=O)N2CCN(CCN3C(=O)C4C5C=CC(C5)C4C3=O)CC2)cc1 (centres undefined)
-3%	0%	0.4%	-17	Cc1ccc(C)c(NC(=O)CN(C)C(=O)c2cccc(S(=O)(=O)N(C)C)c2)c1
-10%	.	0.3%	.	Cc1ccc(SCC(=O)Nc2cc(S(=O)(=O)N3CCCCC3)ccc2C)cc1
-29%	0%	?	-10	CC1CCCN(C(=S)SCC(=O)c2cc(Br)cc(Br)c2O)C1 (centres undefined)
-1%	0%	4.8%	.	Cc1cc(C)cc(NS(=O)(=O)c2cc(Br)cnc2N)c1
-5%	1%	-0.9%	.	Cc1ccccc1NC(=O)CCS(=O)(=O)c1ccc(Br)cc1
-14%	9%	0.3%	.	COc1ccc(N2CCN(C(=O)C(=O)c3cn(CC(=O)N4CCCCCC4)c4ccccc34)CC2)cc1
3%	-9%	-0.4%	-1	CC(O/N=C/c1ccccc1OC(F)F)C(=O)Nc1cccc(S(=O)(=O)N2CCOCC2)c1 (centres undefined)

3 compounds already listed, ordered by length of the SMILES, falling.
Rango dissoc inh	miR-21 reporter	Rango-impB inh	GLA inh pH 4.5	Compound
-14%	9%	0.3%	.	COc1ccc(N2CCN(C(=O)C(=O)c3cn(CC(=O)N4CCCCCC4)c4ccccc34)CC2)cc1
-1%	-2%	0.9%	.	COC(=O)c1ccc(OCC(O)CN2CCN(CC(O)COc3ccc(C(=O)OC)cc3)CC2)cc1 (centres undefined)
3%	-9%	-0.4%	-1	CC(O/N=C/c1ccccc1OC(F)F)C(=O)Nc1cccc(S(=O)(=O)N2CCOCC2)c1 (centres undefined)

Carrying on.
Rango dissoc inh	miR-21 reporter	Rango-impB inh	GLA inh pH 4.5	Compound
14%	.	-4.8%	.	CCCN(Cc1nnc(-c2cccs2)o1)C(=O)c1cc(S(=O)(=O)N2CCOCC2)ccc1C
4%	.	0.8%	.	CN(Cc1cccs1)C(=O)c1cc(S(=O)(=O)N2CCOCC2)ccc1N1CCCC1
1%	-22%	-0.4%	2	CSc1nc2ccc(Cl)cc2[nH]1
6%	-19%	1.2%	.	CN1C2CCC1CC(N(CCc1ccccc1)C(=O)c1ccc(Cl)cc1)C2 (centres undefined)
-1%	-4%	-0.1%	-8	CC(C)CCNC(=O)NC(=O)CSc1nnc(COc2ccccc2Cl)o1
-7%	.	0.0%	.	COc1cc(C2c3[nH]c4ccccc4c3CC3COC(=O)N32)cc(OC)c1O (centres undefined)
-2%	3%	-2.6%	-7	O=C1[C@@H]2C(c3cccnc3)=NO[C@@H]2C(=O)N1c1ccc(Cl)cc1Cl
4%	-4%	1.7%	4	COC(=O)C(CCCCNC(=O)c1ccc([N+](=O)[O-])cc1)NC(=O)c1ccc([N+](=O)[O-])cc1 (centres undefined)
-4%	2%	-0.8%	3	O=C(CC1CC2CCC1C2)Nc1nc(-c2ccccn2)cs1 (centres undefined)
23%	-2%	5.5%	.	CCN(CC)CCCN(Cc1cc2cc3c(cc2[nH]c1=O)OCO3)C(=S)NCCOC
-5%	.	-0.4%	.	O=C(NCc1ccccc1)C1=C[C@@H](c2ccc(C(F)(F)F)cc2)C[C@@H](OCCCCO)O1
-9%	1%	0.7%	0	CS(=O)(=O)c1ccc(Cl)c(NC(=O)C2CC(=O)N(Cc3ccccc3)C2)c1 (centres undefined)
26%	-2%	2.9%	-6	Cc1ccc(NC(=O)CSc2ncn(-c3ccccc3)n2)cc1C
2%	.	-4.8%	.	CCc1cc(C(=O)N2CCN(C(=O)c3ccccc3)CC2)sc1C
0%	-1%	2.6%	-8	CN1/C(=C\C(=O)COC(=O)CNC(=O)c2ccccc2F)C(C)(C)c2ccccc21
24%	2%	2.3%	6	C#CCOCCOCCOCCNc1nc(N2CCN(C(=O)[C@H]([C@@H](C)CC)n3cc(CCCN=C(N)N)nn3)CC2)nc(N2CCN(C(=O)[C@H](Cc3ccc(O)cc3)n3cc(CCO)nn3)CC2)n1
23%	-2%	-1.5%	7	Cc1cccc(NC(=S)N(CCCN2CCOCC2)Cc2ccco2)c1
-16%	-4%	6.0%	1	COc1ccc(F)cc1C(=O)C1CCCN(C(=O)Cc2c(C)noc2C)C1 (centres undefined)
-3%	4%	-0.5%	2	O=S(=O)(NCc1cccs1)c1cccc(S(=O)(=O)N2CCCCC2)c1
23%	-4%	3.8%	-6	O=C(O)CCc1nc(-c2ccc(Cl)cc2)no1

Among those listed so far, these contain bromine.
Rango dissoc inh	miR-21 reporter	Rango-impB inh	GLA inh pH 4.5	Compound
?	?	?	-11	Oc1ccc(Br)cc1-c1nc2cnccn2c1NC1CCCC1
-29%	0%	?	-10	CC1CCCN(C(=S)SCC(=O)c2cc(Br)cc(Br)c2O)C1 (centres undefined)
-1%	0%	4.8%	.	Cc1cc(C)cc(NS(=O)(=O)c2cc(Br)cnc2N)c1
-5%	1%	-0.9%	.	Cc1ccccc1NC(=O)CCS(=O)(=O)c1ccc(Br)cc1

Remaining list, next part
Rango dissoc inh	miR-21 reporter	Rango-impB inh	GLA inh pH 4.5	Compound
21%	-7%	-0.2%	-2	CCN1CCN(C(=S)c2ccc(Cl)c(Cl)c2)CC1
-9%	-1%	-2.6%	-6	COc1cccc(NS(=O)(=O)c2ccc3[nH]cc(C(=O)NCCN4CCOCC4)c(=O)c3c2)c1
0%	.	-5.3%	.	Cc1ccc(S(=O)(=O)N(C)CC(=O)NCCCn2nc(C)cc2C)cc1
-2%	0%	0.4%	-7	COc1ccc(-n2ncc3c(=O)n(Cc4c(F)cccc4Cl)cnc32)cc1
3%	-4%	3.9%	-5	O=C(c1ccc2c(c1)OCO2)N1CCCC1
3%	.	-1.3%	-12	COc1cc(OC)c2c(-c3cccc(-c4ccc(C(F)(F)F)cc4)c3)cc(=O)oc2c1
-6%	-2%	0.0%	5	O=C(COc1ccc(S(=O)(=O)N2CCCCC2)cc1)NCC1CCCO1 (centres undefined)
-2%	0%	1.9%	-14	Nn1c(SCc2cn3cc(Cl)ccc3n2)nnc1-c1ccncc1
12%	1%	-2.4%	1	O=C1CSC(c2cn(-c3ccccc3)nc2-c2cc3ccccc3oc2=O)N1Cc1ccccc1 (centres undefined)
9%	.	-2.4%	.	O=C(OCc1ccccc1C(F)(F)F)c1ccc(Br)c(S(=O)(=O)N2CCOCC2)c1
13%	-4%	0.0%	-1	Cc1ccc(S(=O)(=O)Nc2cc(=O)[nH]c(SCc3ccccc3Cl)n2)cc1
-9%	.	1.5%	.	CN(CC(=O)Nc1ccc(F)cc1)C(=O)COC(=O)Cc1cccs1
?	-7%	?	15	O=C(Nc1cccc(F)c1)c1coc(=O)c(Br)c1
-11%	-41%	2.8%	0	Cc1cccc(-n2nnc(C(=O)N3CCc4ccccc4C3)c2N)c1
-8%	3%	-0.6%	.	O=C(COc1ccc2c3c(c(=O)oc2c1)CCCC3)NCc1ccccn1
29%	-3%	2.1%	.	O=[N+]([O-])c1ccc(CCn2ccnc2)cc1
16%	-4%	1.4%	4	COc1cccc(/C=C/C(=C2/C(=O)N(c3ccccc3)N=C2C)c2ccc(Br)cc2)c1OC
-9%	-4%	2.7%	19	CCCCCCCCOC(=O)CCc1c(C)[nH]c(=S)[nH]c1=O
25%	-8%	2.9%	-4	Cc1ccc(NC(=O)c2cc(-n3cnnc3)ccc2Cl)cc1
1%	-16%	0.8%	.	Cc1ccc(CC(=O)N2CCN(C(=O)C3CCCO3)CC2)cc1 (centres undefined)
17%	-12%	0.0%	5	Cc1ccc(C(=O)c2ccc([N+](=O)[O-])cc2)c(C)c1
3%	.	0.0%	.	Fc1ccc(Oc2ccnc(Cl)n2)c(Cl)c1

Shown with two lines to a compound: two of the compounds above
Sequence of screens – Rango dissoc inh	miR-21 reporter	Rango-impB inh	GLA inh pH 4.5
O=C1[C@@H]2C(c3cccnc3)=NO[C@@H]2C(=O)N1c1ccc(Cl)cc1Cl
 : -2%	3%	-2.6%	-7
COC(=O)C(CCCCNC(=O)c1ccc([N+](=O)[O-])cc1)NC(=O)c1ccc([N+](=O)[O-])cc1 (centres undefined)
 : 4%	-4%	1.7%	4

An excerpt. The share of hits here may be higher or lower than overall.
